Ecoli growth – E. coli growth inhibition | Escherichia coli growth, OD600, 23 h; active compounds read low | OD600 absorbance (concentration not given with the values) | 0.21% of 330,000 active;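 active = OD600 absorbance below the run mean of sample wells minus 3.6 SD, in any replicate, cut at about 0.56 in these data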;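 note: stock transfer was 300 nL into about 60 µL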
AF4-AF9 inh – blocks AF4 peptide binding to human AF9. 0.47% of 350,000 active. inhibition, % at 10 µM. AID 651704. AlphaScreen, biotin-AF4 peptide binding to FLAG-AF9. P42568;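 active = every replicate reaching a set inhibition limit, whatever the replicate mean, cut at about 25% in these data; inconclusive = mean inhibition reaches that limit but some replicates miss it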;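 note: 0% = plate neutral control median and 100% = total signal loss; the record names both 10 and 1 µM as test concentration; the first replicate is given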
Target sequence (P42568 whole entry, looked up): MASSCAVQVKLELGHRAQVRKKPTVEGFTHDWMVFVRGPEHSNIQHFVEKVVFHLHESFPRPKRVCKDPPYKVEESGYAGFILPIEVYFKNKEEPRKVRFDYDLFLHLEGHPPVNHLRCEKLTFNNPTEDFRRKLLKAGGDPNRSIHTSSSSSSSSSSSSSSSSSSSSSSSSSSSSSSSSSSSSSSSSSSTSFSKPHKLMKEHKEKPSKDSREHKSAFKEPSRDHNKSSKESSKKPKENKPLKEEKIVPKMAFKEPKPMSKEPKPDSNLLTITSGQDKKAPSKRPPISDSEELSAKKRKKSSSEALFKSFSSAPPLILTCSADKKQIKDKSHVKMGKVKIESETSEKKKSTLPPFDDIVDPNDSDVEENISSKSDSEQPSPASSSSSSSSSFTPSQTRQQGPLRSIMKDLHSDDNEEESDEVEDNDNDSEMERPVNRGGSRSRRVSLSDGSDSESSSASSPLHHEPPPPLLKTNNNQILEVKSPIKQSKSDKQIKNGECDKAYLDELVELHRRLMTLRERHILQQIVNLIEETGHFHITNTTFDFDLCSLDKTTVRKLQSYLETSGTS
HNF4A DNA FP – change in binding of human HNF4 alpha to DNA. P41235. HNF4a-FITC DNA binding, fluorescence polarization, 1 h. activity change, % at 10 µM. 0.3% of 360,000 active. AID 1224865; in the data active = activity change above about 30%, passing the limit was not always enough;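 note: controls were the assay level and a saturating level of protein; the project sought stronger binding though the title names inhibitors; some compounds called inactive have numbers as strong as hits; positive values seem to mean higher polarization but the record does not say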
ALR inh – blocks human ALR sulfhydryl oxidase activity; P55789; purified ALR, DTT oxidation, H2O2 HRP-luminol luminescence; inhibition, % (concentration not given with the values); 3.8% of 290,000 active; AID 485317;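 active = mean and each replicate at 75% or more; inconclusive = only one of the two met; inactive = neither met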;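 note: stock transfer was 7.5 nL into about 7.5 µL; 0% = neutral wells and 100% = wells with inactivated enzyme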
Target sequence (P55789 whole entry, looked up): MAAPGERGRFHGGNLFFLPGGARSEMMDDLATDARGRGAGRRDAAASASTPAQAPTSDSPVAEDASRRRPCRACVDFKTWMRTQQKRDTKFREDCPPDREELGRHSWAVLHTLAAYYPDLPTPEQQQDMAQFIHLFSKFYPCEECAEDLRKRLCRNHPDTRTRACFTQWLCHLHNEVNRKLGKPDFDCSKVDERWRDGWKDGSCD
FGF22 binding – binders of recombinant human FGF22 by thermal shift; Q9HCT0; SYPRO orange fluorescence; percent of sucrose octasulfate shift, DMSO zero; calls only at 9.99 µM; 1.5% of 340,000 active;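 active = melting point raised past a set limit in the mean and every replicate; inconclusive = no clear call; three in four hits are not shown here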
Target sequence (Q9HCT0 whole entry, looked up): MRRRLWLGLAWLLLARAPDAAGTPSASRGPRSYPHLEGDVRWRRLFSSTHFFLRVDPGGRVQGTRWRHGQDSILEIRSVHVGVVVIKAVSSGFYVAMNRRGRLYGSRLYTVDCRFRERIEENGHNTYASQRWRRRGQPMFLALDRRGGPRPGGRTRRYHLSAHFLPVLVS
Ecoli rRNA inh – selective bacterial rRNA inhibition in E. coli | E. coli WT GFP vs humanized-ribosome RFP mutants, fluorescence, 24 h; active compounds read low; DMSO median 0, no signal -100 | GFP signal change (wild-type ribosome), % (concentration not given with the values) | 1.6% of 350,000 active;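 active = significant combined selectivity score with lowered wild-type GFP, culture density cut under 30%, mutant RFP and density less affected; inactive = any of these conditions unmet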; note: one replicate is shown; some compounds called inactive have numbers as strong as hits
Vif TR-FRET – inhibitors of Vif binding to APOBEC3G peptide, primary screen, biochemical, TR-FRET, GST-Vif 1-94, biotin-A3G peptide, dose response retest (AID 1117319). TR-FRET GST-Vif / biotin-A3G peptide binding; higher % means a stronger effect; test concentration not given here; strong numbers were not always called active. inhibition, %, or IC50 in µM where a hit was titrated. 0.57% of 260,000 active;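 active = above the screen mean plus three standard deviations and confirmed in dose response; inconclusive = results disagree or hit not tested in dose response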;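 note: Vif residues 1-94 fused to GST binding biotinylated APOBEC3G peptide 110-148; 0% = full assay without inhibitor and 100% = GST in place of GST-Vif; retest series ran down from 100 µM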
Ecoli rRNA inh OD600 – further read-out of Ecoli rRNA inh, marked with its call; OD600 change, %; measured here: OD600 growth;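 optical density of the mix in the first replicate; 0 = DMSO median and -100 = no signal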
Ecoli rRNA inh RFP – also measured in Ecoli rRNA inh; calls as there; RFP signal change, %; measured here: RFP humanized mutant strains;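 first replicate; 0 = DMSO median and -100 = no signal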
Starred values were filed as active, the others as inactive; i = inactive; ? = inconclusive; . = not tested or not shown. A portion of the library (hit frequency here may not be typical).

SMILES	Ecoli growth	AF4-AF9 inh	HNF4A DNA FP	ALR inh	FGF22 binding	Ecoli rRNA inh	Ecoli rRNA inh OD600	Ecoli rRNA inh RFP	Vif TR-FRET
COc1ccc(Cc2c(O)nc(SC)n(C(C)=O)c2=O)cc1	0.79	.	-1.1	10	.	.	.	.	10%
CC(C)Cc1ccc(C(C)CC2=CCC(CN(C)C)C2=O)cc1 (stereo not drawn)	.	-1.6	-0.1	.	i	-3	-4	2.2	1%
Cc1ccc(/C(N)=N/OC(=O)Cc2cccc3ccccc23)cc1	0.69	-2.5	-1.1	-7	i	11	4	0.4	1%
COC(=O)C1=C(C)N(Cc2cccc(C(F)(F)F)c2)C(=NCc2cc(OC)c(OC)c(OC)c2)NC1c1cccc(F)c1 (stereo not drawn)	.	11	.	.	.	-23	-32	-1.4	.
COc1ccc(CNC(=O)CN2C(=O)NC(C)(c3ccc(C(C)(C)C)cc3)C2=O)cc1 (stereo not drawn)	0.66	1.3	1.2	0	i	0	-5	-5.3	11%
CC(C)(C)c1ccccc1NC(=O)C1=COCCO1	0.69	-1.8	1.6	-1	i	4	5	-1.9	-12%
CCc1nonc1NC(=O)c1oc2ccc(Cl)cc2c1C	0.72	-3.8	3.4	14	i	3	7	-2.4	-2%
COc1ccc(/C=N/NC(=O)C(=O)N2CCCCCC2)cc1O	.	-1.3	1.7	83*	i	6	3	3.8	-1%
COC(=O)[C@H](Cc1ccccc1)NC(=O)NCCc1ccccc1F	0.67	-0.4	-0.5	-15	i	-9	-6	-11	1%
C[C@@H]1CN([C@@H](C)CO)C(=O)c2cc(-c3ccncc3)cnc2O[C@H]1CN(C)S(=O)(=O)c1ccccc1	.	-0.5	.	.	i	-1	-3	-2.8	.
CC(=O)c1cc(C(=O)NC2CCCc3c2cnn3-c2cc(C)cc(C)c2)[nH]n1 (stereo not drawn)	0.69	-0.6	-1.2	18	i	-4	-11	0.7	.
CSCCC(=O)N1CCC(n2nccc2NC(=O)c2ccc3c(c2)OCO3)CC1	0.71	0.0	-5.4	0	i	12	19	1.0	.
CCCCC(=O)NC(=S)Nc1cccc(NC(=O)c2ccccc2)c1	0.67	-1.1	-0.2	-1	i	-19*	-11*	4.2*	.
O=C(Cc1cccs1)Nc1nnc(SCc2ccc(Br)cc2)s1	0.65	1.6	-0.8	-3	i	6	17	12	.
COC(=O)/C=C1\S/C(=N/NC(=O)c2ccc(OC)cc2)NC1=O	0.7	-2.9	3.0	-7	.	7	6	3.1	15%
COC(=O)CNC(=O)C1CCC(CNS(=O)(=O)c2cccc3nsnc23)CC1 (stereo not drawn)	0.63	-6.2	1.1	-2	i	4	6	-2.8	-1%
COc1ccc(C2C(C#N)=C(C)NC(C)=C2C#N)c(OC)c1	0.69	1.0	3.7	5	i	0	-6	-1.0	-1%
Cc1ccc(CNc2ncnc3cc(Cl)ccc23)o1	0.68	.	-0.7	3	.	.	.	.	0%
CCOc1ccc2[nH]cc(C(=O)N3CCN(CC)CC3)c(=O)c2c1	0.7	.	-1.4	3	.	.	.	.	-7%
C[C@@H]1CN([C@@H](C)CO)C(=O)Cc2cc(NS(=O)(=O)c3cn(C)cn3)ccc2O[C@H]1CN(C)Cc1ccc(C(F)(F)F)cc1	.	0.6	.	.	i	-5	-12	0.3	.
OCCC1CN(CCCc2ccccc2)CCN1CCc1ccccc1 (stereo not drawn)	0.72	4.1	5.2	-3	i	4	11	-1.7	.
Cc1cccc(NC(=O)c2cc(S(=O)(=O)N3CCOCC3)cn2C)c1C	0.71	2.6	0.3	-11	i	6	3	-2.4	.
CC(C)N(C(=O)[C@H]1C[C@H](CC(=O)NCCC2=CCCCC2)C(=O)N2CCc3c([nH]c4cc(CCC(=O)N(C)C)ccc34)[C@]12C)C(C)C	0.7	4.3	-3.5	.	i	-9	-12	0.3	-6%
COC(=O)[C@@]1(Cc2ccc(F)cc2)[C@H]2c3cc(C(=O)N(C)C)n(Cc4ccc(C)c(F)c4F)c3C[C@H]2CN1C(=O)c1ccccc1	.	4.3	4.0	.	i	31	10	12	.
OCCN1CCN(CC(O)COc2ccc(C34CC5CC(CC(C5)C3)C4)cc2)CC1 (stereo not drawn)	.	21	-1.9	-4	i	-47	-65	-11	.
Cc1cc2nc(SCC(=O)N(C)C)c3c(c2cc1C)CCCC3	0.72	1.9	9.4	-3	i	-5	-9	4.4	7%
CC(NC(=O)c1ccccc1)C(=O)OCC(=O)N1c2ccccc2Sc2ccccc21 (stereo not drawn)	0.67	0.1	-0.7	-19	i	-8	-10	-4.6	.
CC(C)Oc1ccc(CNC(=O)CCC(=O)N2CC(C)Sc3ccccc32)cc1 (stereo not drawn)	0.73	-1.2	0.1	-6	i	-21	-35	-4.6	.
CSc1n[nH]c(N)c1S(=O)(=O)c1ccc(Cl)cc1	0.68	-0.3	2.7	3	i	-3	-4	1.5	-6%
COc1ccccc1Oc1ncnc2c1oc1ccccc12	0.66	-1.5	2.3	23	i	5	5	1.1	.
Cc1n[nH]c(=S)n1/N=C/c1ccc(Br)o1	.	.	0.7	20	.	.	.	.	-4%
COC(=O)Cc1csc(Nc2ccccc2Cl)n1	0.71	-0.3	3.5	13	i	2	9	-4.9	.
COc1cc(C2N(c3ccccn3)C(=O)C3CCCN32)cc(OC)c1OC (stereo not drawn)	0.7	.	-13	-3	.	.	.	.	-9%
S=c1[nH]c2ccccc2c2ccccc12	0.69	0.9	-0.4	-4	i	12	10	-0.4	-11%
COCCSc1nnc(NC(=O)CCS(=O)(=O)c2ccccc2)s1	0.67	1.6	0.8	8	i	2	4	-0.2	.
C[C@H]1CN([C@@H](C)CO)C(=O)c2cccc(NC(=O)Nc3ccc(F)cc3)c2O[C@H]1CN(C)C(=O)Nc1cccc2ccccc12	.	1.6	.	.	i	-1	2	5.0	.
O=C(NCCc1ccccc1)[C@@H]1[C@@H](CO)[C@@H]2Cn3c(cccc3=O)[C@H]1N2CC1CC1	.	0.1	.	.	i	1	0	-1.5	.
CO[C@H]1CN(C)C(=O)c2cc(NC(=O)c3ccccc3F)ccc2OC[C@@H](C)N(CC2CCOCC2)C[C@H]1C	.	-2.7	.	.	i	-2	16	-2.4	.
CCN(C[C@@H]1[C@H](c2ccccc2)[C@@H](CO)N1C(C)=O)C(=O)c1ccccn1	.	-7.1	.	.	i	2	11	-0.6	.
Nc1ccc2oc(-c3cccs3)nc2c1	0.68	.	2.4	98*	.	.	.	.	?
CCCNC(=O)C(=O)c1cccn1-c1ccsc1C(=O)OC	0.68	.	5.3	6	.	.	.	.	?
O=C(Cc1ccc(Cl)cc1Cl)OCC(=O)N1CCN(C(=O)c2ccco2)CC1	0.7	0.9	-3.4	-16	i	.	.	.	9%
COC(=O)c1ccccc1NC(=O)CC(NCc1ccccc1)C(=O)O (stereo not drawn)	0.73	-1.5	.	1	i	6	14	-1.4	.
Oc1ccc(C[C@@H]2CNC(=S)N2CCCCC2CCCCC2)cc1	.	4.8	2.8	11	i	-13	-14	9.8	17%
CCOC(=O)N1CCN(c2c(-c3ccccc3)c3cc(Cl)ccc3[nH]c2=O)CC1	0.67	.	-1.6	0	.	.	.	.	10%
CN(Cc1ccco1)C(=O)c1ccc(S(=O)(=O)N2CCCCCC2)cc1	0.67	1.1	-4.5	.	i	1	3	-0.9	.
O=C(NCCN1CCOCC1)c1ccc(Cl)c(S(=O)(=O)NCc2ccccc2)c1	0.66	2.3	-5.2	.	i	0	0	2.7	.
CCCC(=O)N1CC2(C1)CN(Cc1ccccc1F)[C@@H](CO)c1c2c2ccc(OC)cc2n1C	.	-0.8	.	.	i	-3	6	-3.0	.
C[C@@H]1CCc2cnnn2COC[C@@H](Cc2ccccc2)NC1=O	.	3.6	.	.	i	3	8	-3.5	.
CCC1Sc2ccc(S(=O)(=O)Nc3ccc(OC)c(OC)c3)cc2NC1=O (stereo not drawn)	0.63	0.2	-2.7	-2	i	-18	-20	-1.7	.
O=C(/C=C/c1ccc2c(c1)S(=O)(=O)N(Cc1ccccc1)[C@H]2CC(=O)N1CCOCC1)N1CCOCC1	.	2.1	0.0	-4	i	-5	-3	-1.9	.
O=C(CC(C(=O)O)C1CCCO1)Nc1cccc(C(F)(F)F)c1 (stereo not drawn)	0.66	.	3.7	-5	.	.	.	.	4%
Cc1nn(C(=O)c2ccoc2C)c(N)c1-c1ccccc1	0.78	0.2	-6.1	29	i	-4	-12	-12	.
CC(=O)C1=C(C)N(Cc2ccccc2)C(=O)N[C@H]1c1ccco1	.	-1.8	12	-10	i	14	16	18	.
O=C(Cn1cc2c(n1)CCCC2)NC1CCCCCC1	0.73	-2.9	4.0	2	i	4	-6	-0.5	?
CCNC(=O)C[C@H]1CC[C@H]2[C@@H](COc3ccc(NC(=O)c4cccc(OC)c4)cc3C(=O)N2C)O1	.	-1.4	.	.	i	-1	-1	0.3	.
O=C(c1ccc2c(=O)n(-c3ccccc3)c(=S)[nH]c2c1)N1CCN(c2ccccc2)CC1	0.67	1.8	-0.9	.	i	-2	-5	-1.6	.
O=C(O)c1nccnc1C(=O)Nc1ccc(Cl)cn1	0.69	-1.0	-1.9	-4	i	9	24	-3.2	-12%
CCOc1cc(C(=O)OCc2ccc(C(=O)OC)o2)cc(Br)c1OC	0.79	.	.	21	.	.	.	.	8%
COc1cc(/C=N\NC(=O)c2nonc2N)c(OC)cc1Br	.	0.4	-0.2	-13	i	10	1	-2.9	-5%

Remaining list, next part.
SMILES	Ecoli growth	AF4-AF9 inh	HNF4A DNA FP	ALR inh	FGF22 binding	Ecoli rRNA inh	Ecoli rRNA inh OD600	Ecoli rRNA inh RFP	Vif TR-FRET
Cc1ccc(NNC2CC(=O)N(c3cccc(Cl)c3)C2=O)cc1 (stereo not drawn)	0.66	-1.4	-4.3	.	.	-16	-5	1.7	10%
O=C(Nc1cc(C(F)(F)F)ccc1N1CCOCC1)c1ccco1	0.67	2.1	0.2	2	.	10	14	12	-1%
COc1ccccc1CN(C)C(=O)c1cc2ccccc2o1	0.7	-0.1	3.0	3	i	-1	-24	2.1	-6%
CCc1c(O)nc(SCC(=O)Nc2ccc(Br)cc2)n(-c2ccc(C)cc2)c1=O	0.66	-0.2	6.3	96*	i	-3	-15	4.9	.
Cc1cc(Cn2nc(C(=O)NCC3CC3)cc2-c2ccccc2)on1	0.69	-3.3	-1.4	-10	i	-27*	-19*	-6.1*	.

Complete entries, quoted from the list. Values in the order: Ecoli growth	AF4-AF9 inh	HNF4A DNA FP	ALR inh	FGF22 binding	Ecoli rRNA inh	Ecoli rRNA inh OD600	Ecoli rRNA inh RFP	Vif TR-FRET
Record of COc1ccccc1CN(C)C(=O)c1cc2ccccc2o1 : 0.7	-0.1	3.0	3	i	-1	-24	2.1	-6%
Record of Cc1ccc(NNC2CC(=O)N(c3cccc(Cl)c3)C2=O)cc1 (stereo not drawn) : 0.66	-1.4	-4.3	.	.	-16	-5	1.7	10%
Record of O=C(Nc1cc(C(F)(F)F)ccc1N1CCOCC1)c1ccco1 : 0.67	2.1	0.2	2	.	10	14	12	-1%
Record of CCc1c(O)nc(SCC(=O)Nc2ccc(Br)cc2)n(-c2ccc(C)cc2)c1=O : 0.66	-0.2	6.3	96*	i	-3	-15	4.9	.
Record of Cc1cc(Cn2nc(C(=O)NCC3CC3)cc2-c2ccccc2)on1 : 0.69	-3.3	-1.4	-10	i	-27*	-19*	-6.1*	.

Quoted at random: 2 records from the list
SMILES	Ecoli growth	AF4-AF9 inh	HNF4A DNA FP	ALR inh	FGF22 binding	Ecoli rRNA inh	Ecoli rRNA inh OD600	Ecoli rRNA inh RFP	Vif TR-FRET
O=C(Nc1cc(C(F)(F)F)ccc1N1CCOCC1)c1ccco1	0.67	2.1	0.2	2	.	10	14	12	-1%
COc1ccccc1CN(C)C(=O)c1cc2ccccc2o1	0.7	-0.1	3.0	3	i	-1	-24	2.1	-6%
